Assay outcomes: PubChem, National Center for Advancing Translational Sciences (NCATS)
TRPML1 blocker: human mucolipin-1 channel inhibition; Q9GZU1; activity change, negative = inhibition, % (no concentration beside the values); 0.02% of 390,000 active; TRPML1-inducible cells, Ca2+ dye fluorescence, FDSS; stronger effect = lower value; inhibition of EC80 agonist-evoked calcium signal; AID 624415; in the data active means activity change below about -50%; inconclusive means about -30% to -50%; inactive means above about -30%;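 also: stimulus is agonist 54-4 at its EC80 concentration; % is scaled to controls: 0 for no effect and ±100 for the full control effect; compound concentration not given in the record; the text of the record puts the active cut at -80%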
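Calcium fluorescence in TRPML1-DL cells induced overnight with Tet: a 110 s read after compound pin addition, then a 110 s antagonist read after challenge with 54-4 at 4 uM final (EC80).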
Six1-Eya2 inh: Six1/Eya2 interaction inhibition | AlphaScreen GST-Six1/His-Eya2 binding, biochemical; stronger effect = lower value; control for the full effect not named in the record | activity change, % (no concentration beside the values) | 0.56% of 360,000 active | AID 651725; in the data active = activity change below about -65%; inconclusive = about -30% to -65%; inactive = above about -30%; also: % is scaled to controls: 0 for no effect and ±100 for the full control effect; compound concentration not given in the record
Target sequence (O00167 whole entry, looked up): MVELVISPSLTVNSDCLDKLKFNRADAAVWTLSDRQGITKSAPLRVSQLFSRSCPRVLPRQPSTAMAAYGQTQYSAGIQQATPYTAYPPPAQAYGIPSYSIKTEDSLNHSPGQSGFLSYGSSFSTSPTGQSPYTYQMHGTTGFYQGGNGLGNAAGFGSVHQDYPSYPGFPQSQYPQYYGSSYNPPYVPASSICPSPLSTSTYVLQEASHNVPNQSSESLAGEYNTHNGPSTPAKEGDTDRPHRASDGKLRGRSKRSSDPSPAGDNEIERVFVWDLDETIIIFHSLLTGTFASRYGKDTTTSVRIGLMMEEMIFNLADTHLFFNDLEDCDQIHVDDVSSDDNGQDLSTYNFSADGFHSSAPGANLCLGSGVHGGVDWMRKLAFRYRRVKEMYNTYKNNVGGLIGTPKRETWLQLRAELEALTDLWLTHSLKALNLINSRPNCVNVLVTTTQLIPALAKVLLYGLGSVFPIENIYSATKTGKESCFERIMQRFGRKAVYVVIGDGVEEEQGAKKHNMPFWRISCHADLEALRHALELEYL
Target sequence (Q15475 whole entry, looked up): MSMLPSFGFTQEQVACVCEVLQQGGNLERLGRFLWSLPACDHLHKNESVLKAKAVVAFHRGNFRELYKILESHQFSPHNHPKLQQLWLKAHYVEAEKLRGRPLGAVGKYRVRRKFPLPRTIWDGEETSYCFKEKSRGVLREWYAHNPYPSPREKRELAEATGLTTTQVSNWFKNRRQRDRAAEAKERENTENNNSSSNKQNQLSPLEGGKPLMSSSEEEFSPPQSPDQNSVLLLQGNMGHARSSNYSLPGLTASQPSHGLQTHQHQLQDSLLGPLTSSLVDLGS
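Six1/Eya2 binding was read as AlphaScreen signal after compounds were pinned into GST-Six1 plus His-tagged Eya2 (5X stock 250/500 nM) in pH 8.0 Tris/NaCl/TCEP buffer, beads added, then incubated 1 h, 37 C, dark.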
D2 agonist: activates the human D2 dopamine receptor. P14416. DiscoveRx PathHunter D2 beta-arrestin, luminescence, 90 min; 100% = 57 uM dopamine signal. activation, % (test concentration not listed). 0.084% of 360,000 active. AID 624465; in the data active = activation above about 40%; inconclusive = about 15% to 40%; inactive = below about 15%; also: compound concentration not given in the record; the text of the record calls up to 30% inactive
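Agonist mode: compounds alone added to overnight-plated D2 PathHunter cells for 90 min at 37 C, with 57 uM final dopamine (EC100) defining full response. Beta-arrestin recruitment detected by chemiluminescent reagent, read after 1 h at ambient temperature.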
PINK1 modulator: modulators of PINK1 expression. PINK1 immunofluorescence, high-content cytometry, 24 h. Potency, µM (titrated, usually from 76.6 µM), for the others: at the top dose activation (PINK1 increase), hits mostly activators. 0.2% of 410,000 active. AID 624263; active = well fitted activation curve with a large enough effect; inconclusive = small, poorly fitted or top-dose-only effect; inactive = flat fitted curve, though single readings scatter; cell line not stated here;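 also: potency is read from the fitted curve at half-maximal effect; % of control where 0% means no effect; nearly all actives have a fitted effect of over 65% in size; a mitochondrial uncoupler was the plate control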
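PINK1 protein level read as immunofluorescence by microplate cytometer in a fixed, stained stable cell line after 24 h exposure to five compound concentrations, with CCCP as control.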
TRPML1 ag: agonists of human TRPML1 channel; Q9GZU1; TRPML1-expressing cells, Ca2+ dye fluorescence, FDSS; host cell line not named in the record; reference of the full effect not given here; activation, % (no concentration beside the values); 0.12% of 410,000 active; in the data active = activation above about 50%; inconclusive = about 30% to 50%; inactive = below about 30%; also: 0% is about no effect; the text of the record puts the active cut at 80%
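Calcium fluorescence on an FDSS kinetic reader gave the read-out. Tet-induced TRPML1-DL cells were plated overnight, dye-loaded (Ca8 with quencher, 45-90 min, room temperature, dark), then read 110 s after compound addition, and again 110 s after 4uM final 54-4 (EC80).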
CtBP-E1A inh: inhibitors of CtBP/E1A interaction. AlphaScreen GST-E1A/His-CtBP binding, 1536-well; stronger effect = lower value; control for the full effect not named in the record. activity change, % (test concentration not listed). 0.49% of 340,000 active. AID 651724; in the data active means activity change below about -65%; inconclusive means about -30% to -65%; inactive means above about -30%; also: % is scaled to controls: 0 for no effect and ±100 for the full control effect; compound concentration not given in the record
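Protein mix (5X: 125 nM each GST-E1A, His-CtBP) was incubated with pinned compound 2 h at 37 deg C in dark, in 50 mM Tris pH 8.0 buffer with 300 mM NaCl. Glutathione donor and nickel acceptor beads followed; AlphaScreen signal read after 1 h.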
An asterisk follows results filed as active; ? = inconclusive; · = no result given; & = joins results of further samples; [ ] = remark or other dose.

SMILES | TRPML1 blocker | Six1-Eya2 inh | D2 agonist | PINK1 modulator | TRPML1 ag | CtBP-E1A inh
C/C(Cl)=C\Cn1c(N2CCCC2)nc2c1c(=O)n(C)c(=O)n2C | -16 | -8 | -3.9 | 0.7% | -1.4 | -1
Cc1cc2ccccc2nc1SCC(=O)Nc1nc(-c2ccccc2)cs1 | -15 | 2 | -2.2 | 4.2% | 0.0 | -8
O=C(COC(=O)c1ccccc1)Nc1cccc(S(=O)(=O)N2CCCCC2)c1 | 4 | -9 | -0.5 | 0.2% | 1.3 | -5
O=C(Nc1ccc(-c2nc3ccccc3s2)c(O)c1)c1ccc(Br)cc1 | -2 | · | · | 1.6% | -0.6 | ·
COc1ccc(CNC(=O)C2Cc3c(-c4ccc5c(c4)OCO5)ccnc3O2)cc1OC (stereo unspecified) | · | -17 | 6.9 | 7.1% | -1.1 | -1
O=C(N/N=C\c1ccc(-c2cccc(Cl)c2)o1)C(=O)NC1CCCC1 | -18 | 4 | -0.1 | -1.2% | 1.4 | -3
CCCNC(=S)Nc1ccc(Nc2ccccc2)cc1 | -14 | -15 | -4.2 | -2.2% | 5.1 | -16
O=C(Nc1cccc(Br)c1)N1CCC(CN2CCCCCC2)CC1 | 14 | · | · | 0.2% | 1.4 | ·
CSc1nn(-c2ccc(C(=O)OCC(=O)NC(=O)NC(C)C)cc2)c(=S)s1 | -3 | -15 | 5.9 | 0.4% | 2.0 | -6
CCN(CC)Cc1c(O)ccc2c(=O)c(Oc3ccccc3OC)coc12 | -17 | -4 | -3.3 | 1.7% | 0.2 | 17
Cc1nn(CC(=O)NNC(=O)c2ccc(Br)cc2)c(C)c1[N+](=O)[O-] | -6 | 7 | -1.8 | 1.3% | 2.6 | 2
CCC(C)Nc1cc(C)c(C#N)c2nc3ccccc3n12 (stereo unspecified) | -13 | -3 | 3.8 | 0.8% | 1.5 | -18
Cc1ccc(S(=O)(=O)N(C)c2ccc(OCC(=O)NCc3ccco3)cc2)cc1 | 14 | -2 | -0.9 | · | 1.2 | -3
Cc1cc(O)c(C(c2ccc(F)cc2)N2CCN(c3ccccc3)CC2)c(=O)n1Cc1ccco1 (stereo unspecified) | 6 | · | · | 1.4% | 0.2 | ·
CCOc1ccccc1CNS(=O)(=O)c1ccc(-c2coc(C)n2)cc1 | 4 | · | · | -0.2% | 1.6 | ·
CCn1c(=O)cc(SCC(=O)NCc2ccc3c(c2)OCO3)c2ccccc21 | -7 | -23 | -3.4 | 2.7%[38.3 µM] | 1.0 | -27
O=[N+]([O-])c1ccc(N=NNc2ccccc2)cc1 | 0 | -15 | -4.3 | 3.2% | 1.5 | -11
CCc1ccc(NCc2cc3cc4c(cc3n(CC(=O)Nc3ccc(C)cc3)c2=O)OCO4)cc1 | 12 | · | · | -0.1% | 24 | ·
Cc1nc2nc(-c3ccc(F)cc3)cn2nc1C | 1 | 5 | -2.7 | 0.5% | -0.4 | ·
CCN(CC(=O)Nc1ccc2c(c1)OCCO2)C(=O)/C=C/c1ccc([N+](=O)[O-])cc1 | 41 | -10 | -0.2 | -1.1% | 3.1 | -5
COC(=O)[C@@H]1C[C@@]2(O)[C@H](O)[C@H](O)[C@H](O)C[C@H]2N1CC(c1ccccc1)c1ccccc1 | 7 | 0 | -4.8 | -0.5% | 0.7 | -2
CC(C)N1CCN(Cc2ccncc2)CC1CCO (stereo unspecified) | 3 | 5 | -3.9 | -0.2% | -0.7 | 3
CCOc1ccc(OCCCC(=O)N(CC)CC(=O)Nc2c(F)cccc2F)cc1 | -7 | -1 | -2.3 | -0.7% | -0.3 | 0
Cc1ccc2oc(=O)c3cc(C(=O)Nc4ccc(C)c(F)c4)sc3c2c1 | -7 | · | · | 0.8% | -0.3 | ·

A stretch from the list above, for reference:
SMILES | TRPML1 blocker | Six1-Eya2 inh | D2 agonist | PINK1 modulator | TRPML1 ag | CtBP-E1A inh
CC(C)N1CCN(Cc2ccncc2)CC1CCO (stereo unspecified) | 3 | 5 | -3.9 | -0.2% | -0.7 | 3
CCOc1ccc(OCCCC(=O)N(CC)CC(=O)Nc2c(F)cccc2F)cc1 | -7 | -1 | -2.3 | -0.7% | -0.3 | 0
Cc1ccc2oc(=O)c3cc(C(=O)Nc4ccc(C)c(F)c4)sc3c2c1 | -7 | · | · | 0.8% | -0.3 | ·

(cont.)
SMILES | TRPML1 blocker | Six1-Eya2 inh | D2 agonist | PINK1 modulator | TRPML1 ag | CtBP-E1A inh
COc1ccc(CNC(=O)c2cccn2-c2nnc(N3CCCC3)s2)c(OC)c1 | -6 | · | · | 0.4% | 0.8 | ·
S=c1[nH]cnc2scc(-c3ccc(Br)cc3)c12 | -2 | -2 | 2.1 | 0.6% | 1.6 | -1
Cc1sc2c(c1C)c(=O)n(-c1ccccc1)c(=O)n2CC(=O)c1ccc(Cl)cc1 | -2 | · | · | 1.2% | 4.8 | ·
COc1cc(OC)c(C2C(C(=O)N3CCOCC3)=C(C)NC3=C2C(=O)CC(C)(C)C3)cc1OC (stereo unspecified) | 9 | 2 | -1.1 | -2.9% | -1.7 | 0
Nc1c(-c2cccc([N+](=O)[O-])c2)nc2ccccn12 | -2 | -16 | 6.0 | 2.9% | 1.6 | -1
COC(=O)c1cc(OC)c(OC)cc1NC(=S)N1CCCC(CO)C1 (stereo unspecified) | 2 | 1 | -2.8 | 3.0%[38.3 µM] | 0.0 | 6
Clc1ccc(-c2csc(N/N=C/c3ccc4c(c3)OCO4)n2)cc1 | -7 | -2 | -0.4 | 4.4% | 2.3 | 16
COc1ccccc1NS(=O)(=O)c1cc(NC(=O)C2CCC2)ccc1N1CCCCC1 | · | -4 | -4.0 | -0.5% | · | -2
COc1cc2c(C(=O)NCc3ccc4c(c3)OCO4)cn(C)c(=O)c2cc1OC | -6 | 8 | -0.6 | -0.2% | -0.7 | -1
CCOC(=O)CC(=O)CSc1nnc2c(n1)[nH]c1ccccc12 | 13 | ? | -1.2 | -4.6% | -0.8 | -18
CCOC(=O)c1c(C)oc2ccc(OC(=O)c3cccs3)cc12 | -1 | 5 | 2.7 | 1.7% | 3.4 | ·
Cc1ccc(Nc2c(-c3cccs3)nc3nc(C)cc(C)n23)cc1 | 31 | · | · | 0.4% | 0.9 | ·
Cn1c(=O)c(C(=O)CCl)c(N)n(CC2CC2)c1=O | 1 | 4 | -1.3 | 0.5% | -0.8 | ·
O=C(O)c1ccc(NC(=O)c2ccco2)c(NC(=O)c2ccco2)c1 | -7 | -1 | -2.3 | 0.5% | -0.3 | 3
C[C@H](CO)N1C[C@H](C)[C@H](CN(C)CC2CC2)Oc2ccc(NC(=O)CCN3CCOCC3)cc2C1=O | 16 | -1 | 0.1 | 0.0% | -0.7 | 3
O=C1COc2ccc(S(=O)(=O)NCCc3ccccc3)cc2N1 | -2 | 5 | -2.3 | 0.6% | 0.6 | 7
CC(=O)C(Sc1nccc(-c2cccs2)n1)C(C)=O | 3 | 5 | 1.5 | -0.2% | -0.2 | 3
COc1cc2oc(=O)cc(CN3CCN(c4ccccc4OC)CC3)c2cc1Cl | · | -8 | -4.3 | 3.8% | -0.7 | 0
Cc1ccc(S(=O)(=O)N(CC(=O)N(C)C)c2cccc([N+](=O)[O-])c2)cc1 | 11 | 4 | -3.9 | 7.1% | -1.6 | -7
CCc1nnc(NC(=O)c2nc(S(=O)(=O)Cc3cccc(C)c3)ncc2Cl)s1 | -3&6 | -19 | -2.4 | -0.7%&-1.1% | -0.6&-0.7 | -3
Cc1nc(NC(=O)c2cc3c(s2)CCCCC3)sc1C(=O)N(C)C | 2 | -1 | -3.9 | 5.1%[38.3 µM] | 3.0 | -5
Cc1ccccc1C1=NC(C(F)(F)F)(C(F)(F)F)c2c(n(C)c(=O)n(C)c2=O)N1 | -19 | 3 | -2.0 | 5.0% | 0.0 | -1
Cc1cc(C(=O)N2CCC2(C)C(=O)NCc2cccc3ccccc23)nn1C (stereo unspecified) | · | 4 | 4.3 | 0.5% | -1.1 | 5
CCN(C(=O)CN1CCN(C)CC1)c1cccc2ccccc12 | 8 | 2 | -4.0 | 1.9% | -0.7 | 5

Complete entries, looked up by structure:
`CCN(CC)Cc1c(O)ccc2c(=O)c(Oc3ccccc3OC)coc12` is entered as TRPML1 blocker: -17; Six1-Eya2 inh: -4; D2 agonist: -3.3; PINK1 modulator: 1.7%; TRPML1 ag: 0.2; CtBP-E1A inh: 17
`CCOc1ccc(OCCCC(=O)N(CC)CC(=O)Nc2c(F)cccc2F)cc1` is entered as TRPML1 blocker: -7; Six1-Eya2 inh: -1; D2 agonist: -2.3; PINK1 modulator: -0.7%; TRPML1 ag: -0.3; CtBP-E1A inh: 0

Next part
SMILES | TRPML1 blocker | Six1-Eya2 inh | D2 agonist | PINK1 modulator | TRPML1 ag | CtBP-E1A inh
CCCN(CCC)C(=O)c1cc2c(=O)[nH]c3ccc(C)cc3c2s1 | -3 | -1 | 4.9 | 5.6% | 1.3 | ·
Cc1ccc(NC(=O)C2CCN(S(=O)(=O)c3ccc4c(c3)CC(C)N4C(=O)C3CCC3)CC2)nc1 (stereo unspecified) | 34 | -14 | 0.4 | -1.2% | 3.2 | -21
COC(=O)/C(=C\Nc1ccc(Cl)c2ccccc12)c1ncc(C(F)(F)F)cc1Cl | -1 | 7 | -4.6 | 12% | -0.1 | 0
CCOC(=O)c1cc(-c2ccc(OC)cc2)nn1-c1ccccc1C(=O)O | 9 | -14 | -7.1 | 2.2% | -0.5 | 7
COc1ccc(N2C(=O)CC(Sc3nnc(-c4ccccc4F)n3C)C2=O)cc1 (stereo unspecified) | 21 | 4 | -1.2 | -0.8% | 2.1 | 2
CC(C)c1ccc(NC(=O)CSc2ncccc2C(=O)Oc2cccc([N+](=O)[O-])c2)cc1 | 6 | -21 | -4.3 | 4.5% | -0.4 | 6
O=[N+]([O-])c1cnccc1NC1CCCCC1 | 3 | 6 | 8.5 | -4.0% | 1.5 | 6
COc1ccc(C(=O)NC2CCN(S(=O)(=O)c3ccc(F)cc3)CC2)cc1 | 10 | 8 | -4.6 | 5.7% | 1.4 | -1
Cc1cccc(N2C(S)=C(C#N)C(=O)NC2c2ccco2)c1 (stereo unspecified) | 3 | 2 | -0.5 | 1.2% | 1.1 | 0
CC1CCCCN1C(=O)CN1C(=O)CSc2ccc(S(=O)(=O)N3CCOCC3)cc21 (stereo unspecified) | 10 | 2 | -3.7 | 3.7% | 0.3 | 0
O=C(CSc1nc2ccccc2o1)N1CCCC1 | -6 | 8 | 1.6 | -0.1% | 1.7 | -4
COc1ccc(OC)c(C2C3=C(CC(C)(C)CC3=O)Nc3nnnn32)c1 (stereo unspecified) | -11 | 1 | 0.6 | 0.2% | 0.4 | ?

Ordered by value in PINK1 modulator (high to low): three of the compounds above
SMILES | PINK1 modulator
CC1CCCCN1C(=O)CN1C(=O)CSc2ccc(S(=O)(=O)N3CCOCC3)cc21 (stereo unspecified) | 3.7%
COc1ccc(OC)c(C2C3=C(CC(C)(C)CC3=O)Nc3nnnn32)c1 (stereo unspecified) | 0.2%
O=C(CSc1nc2ccccc2o1)N1CCCC1 | -0.1%
